Compound activity as filed in PubChem BioAssay.
VDR inh – vitamin D3 receptor (human) inhibition | P11473 | VDR-SRC2-3 peptide fluorescence polarization, 2 h | Potency, µM, for the others: max response, negative = inhibition, actives largely listed as inhibitors | 400,000 compounds, 0.93% hits | AID 504847; active means well fitted inhibition curve with a large enough effect; inconclusive means small, poorly fitted or top-dose-only effect, or another doubt; inactive means no such curve, though single readings can be large or run the other way; further: series mostly up to about 120 µM
Target sequence (P11473 whole entry, looked up): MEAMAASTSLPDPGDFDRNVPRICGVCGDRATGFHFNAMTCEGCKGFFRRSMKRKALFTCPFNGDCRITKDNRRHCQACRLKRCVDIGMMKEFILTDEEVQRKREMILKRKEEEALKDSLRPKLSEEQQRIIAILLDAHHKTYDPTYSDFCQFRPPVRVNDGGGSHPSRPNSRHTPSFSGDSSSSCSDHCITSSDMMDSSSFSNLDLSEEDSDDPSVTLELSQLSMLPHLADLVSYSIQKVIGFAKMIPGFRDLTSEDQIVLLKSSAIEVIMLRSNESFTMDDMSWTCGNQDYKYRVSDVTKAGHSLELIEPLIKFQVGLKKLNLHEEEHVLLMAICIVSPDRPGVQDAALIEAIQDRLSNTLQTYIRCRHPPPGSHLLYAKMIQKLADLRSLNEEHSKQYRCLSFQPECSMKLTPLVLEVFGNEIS
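After 23 nl compound addition and a short centrifugation, plates sat for 2 hours at ambient temperature; polarization of fluorescence then indicated loss of VDR binding to peptide SRC2-3.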
* = called active by the depositor; ? = inconclusive; & = joins results of further samples. On the % scale 0 is the no-effect control and ±100 the full control effect; potency means the concentration at half of the fitted maximal effect. An excerpt; rates above refer to the full screens.

SMILES	VDR inh
CC1CC(C)(C)CC2(C1)NC(=O)N(CC(=O)N1CCN(S(=O)(=O)c3ccc(F)c(F)c3F)CC1)C2=O (stereo not given)	5.3%
Cc1ccccc1-c1nnn(CC(=O)Nc2ccc3c(c2)OCCO3)n1	-8.6%
COCCc1nn2c(=O)cc(COC(=O)COc3ccc(F)cc3)nc2s1	-9.0%
CCN(CC)c1ccc(/C=N/NC(=O)c2ccc3nc[nH]c3c2)cc1	9.2%
COc1cc(C2C3=C(Nc4ncnn42)c2ccccc2CC3)cc(OC)c1OC (stereo not given)	2.0%
CC(OCc1ccccc1)C(NC(=O)OC(C)(C)C)C(=O)NC1COC2CC(n3ccc(=O)[nH]c3=O)OC12 (stereo not given)	2.9%
Cc1cc2c(NCc3ccccc3)ncnc2s1	13.0%
CC1CN(S(=O)(=O)c2cccc(C(=O)N(C)C3CCN(C)CC3)c2)CC(C)O1 (stereo not given)	-2.8%

The final two records of the section above are carried over, then new ones follow:
SMILES	VDR inh
Cc1cc2c(NCc3ccccc3)ncnc2s1	13.0%
CC1CN(S(=O)(=O)c2cccc(C(=O)N(C)C3CCN(C)CC3)c2)CC(C)O1 (stereo not given)	-2.8%
COc1cccc(C(=O)N2c3cc(C)ccc3OCC2C(C)(C)C)c1 (stereo not given)	3.5%
Cc1ccc(S(=O)(=O)N2CCN(C(=O)C(C)Cn3cncn3)CC2)cc1C (stereo not given)	6.4%
COc1cccc(OCC(=O)O)c1	5.2%
Oc1c(Cl)cc(Cl)cc1/C=N/c1nccs1	79.4µM*
CC(=O)c1ccc(N2Cc3ccccc3C2=NC(=O)c2cccs2)cc1	-9.5%
CC(=O)N1N=C(c2cccc(Cl)c2)OC1c1ccc(C(C)C)cc1 (stereo not given)	-6.0%
COc1ccc(NC(=O)C2CCCN(C(=O)Nc3ccc(F)cc3)C2)cc1 (stereo not given)	11.3%
COc1cccc(-c2sc3ccc(OC)cc3c2C#CCCO)c1	-16.3%

An excerpt from above in order of molecular weight, lowest first:
SMILES	VDR inh
COc1cccc(OCC(=O)O)c1	5.2%
Oc1c(Cl)cc(Cl)cc1/C=N/c1nccs1	79.4µM*
COc1cccc(-c2sc3ccc(OC)cc3c2C#CCCO)c1	-16.3%
CC(=O)c1ccc(N2Cc3ccccc3C2=NC(=O)c2cccs2)cc1	-9.5%

Other records follow:
SMILES	VDR inh
Cn1cnc2cc(NC(=O)COc3ccccc3)ccc21	11.0%
COc1ccc(OC)c(NS(=O)(=O)c2ccc(N3CCCCS3(=O)=O)cc2)c1	8.1%
Cc1ccc(-c2nc(-c3ccncc3)no2)c(C)c1	6.5%
O=C1CCC(C(=O)N(Cc2ccco2)C2(C(=O)NC3CCCC3)CCCCC2)N1 (stereo not given)	4.0%
COCCNC(=O)c1ccc(C)c(S(=O)(=O)Nc2ccc(C)cc2)c1	16.4%
Nc1nc(OCC2CCCCC2)c2[nH]cnc2n1	-13.9%&-3.6%
Nc1ccccc1C#Cc1ccc([N+](=O)[O-])cc1	-11.0%
Cc1cc2ncn(S(=O)(=O)N3CCCCC3)c2cc1C	1.5%
O=C(N/N=C/c1ccoc1)c1ccc(Br)cc1	-2.9%
COc1cccc(C2=CC(=O)CC(C)(C)C2)n1	-19.1%
O=C(NC1CCCc2ccccc21)C1CCN(S(=O)(=O)c2cccc3nsnc23)CC1 (stereo not given)	-7.7%
CCOC(=O)C1=C(COC(=O)/C=C/c2ccc([N+](=O)[O-])cc2)NC(=O)NC1C (stereo not given)	-1.8%
Cc1cc(F)ccc1NC(=O)Cn1cc(S(=O)(=O)NC(C)C)c(S(=O)(=O)NC(C)C)c1	1.8%
CCCCn1c(N)c(N(CCOC)C(=O)c2ccc(Br)o2)c(=O)[nH]c1=O	3.6%
O=C(NCCc1ccc(F)cc1)c1cc2ccccc2oc1=O	-9.7%
CC1(C(=O)O)CCC(C(=O)Nc2ccc(OC(F)(F)Cl)cc2)C1(C)C (stereo not given)	-6.7%
COc1cc2c(C(=O)N3CCN(C)CC3)c(C)oc2cc1Br	15.7%
Cc1nn(-c2ccccc2)c2c1C(O)n1c(nc3ccccc31)S2 (stereo not given)	-14.4%
Cc1nc(SCC(=O)NCc2ccc(F)cc2)c2c(=O)n(C)c(=O)n(C)c2n1	-1.5%
Cc1ccc(C(C)C)c(OCC(=O)c2c(O)c3ccccc3oc2=O)c1	-10.6%
CC(C)(C)NC(=O)NC(=O)CSc1ccc(S(=O)(=O)N2CCOCC2)cn1	-18.8%
COc1cc(NC(=O)c2ccc(Br)o2)ccc1NC(=O)c1ccccc1Cl	12.0%
Cc1occc1C(=O)OCC(=O)Nc1ccc(F)cc1	2.6%
COc1cc2c(cc1OC)C(c1cccc(F)c1)CC(=O)N2 (stereo not given)	-1.9%
COCCNC(=O)c1ccc(NS(=O)(=O)c2cc(C)ccc2C)cc1	9.2%
Cc1cc(C)n2nc(SCCOc3ccccc3F)nc2n1	-3.7%
COc1ccccc1CNC(=O)c1cnc(N2CCCC2)nc1C	-5.4%
CC(C(=O)Nc1ccccc1Cl)N(c1ccccc1)S(C)(=O)=O (stereo not given)	5.3%
COc1cccc(OC)c1C(=O)NC(=O)Nc1c(F)c(F)c(F)c(F)c1F	-13.3%
Oc1ccc(C(=S)N2CCN(c3cccc(Cl)c3)CC2)cc1	?
O=C(NCc1cccc(Cl)c1)c1ccc2nc[nH]c2c1	19.0%
CCOC(=O)CSC1=C(C#N)C(=O)NC2(CCCCC2)S1	79.4µM*
Cc1ccc(NC(=O)CCc2c(C)nc3c(-c4ccc(F)cc4)c(C)nn3c2C)cc1F	-26.0%
CC(C)OCCCn1c(=O)c2ccccc2n2c(-c3ccc(F)c(F)c3)nnc12	8.1%
Cc1cc(C)c(S(C)(=O)=O)c(=O)[nH]1	11.0%
N=c1oc2ccc([N+](=O)[O-])cc2cc1C(=O)NCc1ccccc1	-10.7%
Cc1cccc(OCCCC(=O)Nc2nnc(C3CCCO3)s2)c1C (stereo not given)	-11.7%
Cc1nnc(SCC(=O)NC23CC4CC(CC(C4)C2)C3)s1	1.5%
COc1ccc(C2/C=C\CN(C(=O)NC34CC5CC(CC(C5)C3)C4)CC(=O)N2Cc2ccc(F)cc2)cc1 (stereo not given)	-5.0%&-14.6%
Cc1ccc(NC(=O)CCC(=O)N2CCC(C)CC2)c([N+](=O)[O-])c1	19.2%
Cc1ccc(C(=O)NC2(O)C(=O)c3ccccc3C2=O)cc1C	10µM*
CCn1c(=N)n(CC(=O)c2ccco2)c2ccccc21	7.4%
COc1ccc(CNCCc2ccc(Cl)cc2)cc1OCc1ccccc1	-4.3%
CC(C)CNc1c(N)n(CC(C)C)c(=O)[nH]c1=O	14.6%
C/C(CCc1ccc2c(c1)OCO2)=N\N=C1\NC(=O)CC(C(=O)Nc2ccccc2)S1 (stereo not given)	5.2%
CCOC(=O)c1ccc(Nc2nc(C)nc3c2nnn3Cc2ccccc2)cc1	-16.8%
CN(C)S(=O)(=O)c1ccc(N2CCCC2)c(C(=O)OCC(=O)NC2(C#N)CCCCC2)c1	-7.1%
NNC(=O)c1ccc(CSc2nc3ccccc3s2)cc1	?
CCCCn1c(N)c(N(CC(C)C)C(=O)C2CC(=O)N(CCc3ccccc3)C2)c(=O)[nH]c1=O (stereo not given)	-15.0%
Cc1c(C#N)c2ccccc2n1CC(=O)NC(C)c1ccccc1 (stereo not given)	10.8%
CCCCC1=NN2C(=N)CC(=O)N=C2S1	-20.7%
O/N=C/c1ccc(-c2ccccc2OC(F)(F)F)o1	-11.4%
NS(=O)(=O)c1ccc(CCNC(=O)CN2CCC(Cc3ccccc3)CC2)cc1	-5.1%
CCn1c(COc2ccc(C)cc2)nnc1SCC(=O)NNC(=O)c1ccc(OC)cc1	8.0%
O=C(COc1cccc(OC(F)F)c1)Nc1ccc(SC(F)F)cc1	3.9%
Cc1ccc2[nH]c(=O)c(CN(CCCO)Cc3nnnn3Cc3ccccc3)cc2c1	?

Additional entries follow:
SMILES	VDR inh
Cc1ccc(NC(=O)c2ccc3c(c2)[nH]c(=O)n3C(C)C)cc1	-0.4%
CCN1C(=O)C(NC(C)=O)c2cc(Br)ccc21 (stereo not given)	7.2%
CCCN(CCC)C(=O)C1CCC(CNS(=O)(=O)c2cccc3nsnc23)CC1 (stereo not given)	9.5%
Cc1nn(CC(=O)NC(C)c2ccccc2)c(=O)c2ccccc12 (stereo not given)	7.3%
Nc1nc(SCc2ccccc2)c2ncn(Cc3ccccc3)c2n1	-18.7%
CCOC(=O)C1=C(C)NC(=S)NC1c1ccc(-c2cccc(Cl)c2C)o1 (stereo not given)	79.4µM*
Cc1ccc(-c2nc3ccccc3s2)cc1NC(=S)NC(=O)/C=C/c1ccco1	?
O=C(N1CCOCC1)N1CCC(n2nnc3ccccc32)CC1	2.7%

Structures from the list above containing a tert-butyl group, in the order listed:
SMILES	VDR inh
CC(OCc1ccccc1)C(NC(=O)OC(C)(C)C)C(=O)NC1COC2CC(n3ccc(=O)[nH]c3=O)OC12 (stereo not given)	2.9%
COc1cccc(C(=O)N2c3cc(C)ccc3OCC2C(C)(C)C)c1 (stereo not given)	3.5%
CC(C)(C)NC(=O)NC(=O)CSc1ccc(S(=O)(=O)N2CCOCC2)cn1	-18.8%

The list continues.
SMILES	VDR inh
COc1ccc(CC(=O)Nc2nnc(C(C)(C)C)s2)cc1OC	-1.9%
N[C@@]1(C(=O)O)CN[C@@H](C(=O)O)C1	26.8%
CCOC(=O)C1CCCN(c2c(NCC3CCCN3CC)c(=O)c2=O)C1 (stereo not given)	7.5%
CC(C)(C)n1nc2c(c1NC(=O)COc1ccc3ccccc3c1)CS(=O)(=O)C2	-6.2%
Cc1cc(C(=O)COC(=O)c2cccc(O)c2)c(C)n1C1CC1	-9.4%
O=C(Cc1cccs1)Nc1ccc(F)cc1F	17.2%
CCC(=O)Nc1c2c(nn1-c1ccccc1C)CSC2	4.0%
CCn1nc(C)c(/C=N/NC(=O)CSc2ccccn2)c1C	-5.4%
O=[N+]([O-])c1ccc(CS(=O)c2ccccc2)cc1 (stereo not given)	?
COc1cc(/C=C/C(=O)O)cc(S(=O)(=O)Nc2ccccc2C(=O)NCc2ccco2)c1OC	3.9%
CCOC(=O)c1c(-c2cccs2)csc1NC(C)=O	-3.3%
O=C(COC(=O)/C=C/c1ccc(Cl)cc1)NC1CC1	2.2%
COc1ccc(NC(=O)c2sc3nc(N4CCCC4)c4c(c3c2N)CC(C)(C)OC4)c(OC)c1	0.5%
COc1ccc(C(=O)Nc2nnc(C)s2)cc1S(=O)(=O)N1CCOCC1	10.2%
O=C(O)CCN1C(=O)/C(=C/c2cn(-c3ccccc3)nc2-c2cccs2)SC1=S	?
O=c1c(CN2CCN(c3ccccn3)CC2)coc2ccccc12	3.6%
COc1ccccc1/C=C/c1nc(C#N)c(NCc2ccccc2)o1	15.1%
CCOC(=O)N1CCC(NC(=O)c2ccc3c(=O)n4c(nc3c2)CCCC4)CC1	-4.4%
COc1ccccc1OCCNC(=O)CN1C(=O)NC2(CCCC2)C1=O	-8.3%
NC(=O)C1CCN(C(=O)c2cc(Cl)c3c(c2)OCCO3)CC1	-15.7%
OCCN(CCO)CC(O)CN1c2ccccc2Sc2ccccc21 (stereo not given)	-16.8%
Cc1cc(C)c2c(-n3cccc3)c(C(=O)NCCc3ccccc3)sc2n1	11.1%
COc1ccc(C2CC(=O)C=C(NC3CCCC3)C2)cc1 (stereo not given)	14.5%
CC(=O)CCc1ccc(OCC(O)CNCCOc2ccc(C)cc2)cc1 (stereo not given)	-5.2%
Cc1n[nH]c(=O)c2c(NC(=O)CSc3nn(-c4ccccc4)c(=S)s3)oc(C)c12	3.9%
CCOC(=O)C1=C(CC)Nc2ccccc2N=C1NC(=O)c1ccc(S(=O)(=O)N2CCOCC2)cc1	0.0%
COc1ccccc1CNC(=O)C1CCCC1	1.9%
Cc1ccc(S(=O)(=O)N(Cc2cc3ccc(C)cc3[nH]c2=O)c2ccccc2)cc1	-14.7%
CCC(C)(C)NC(=O)C(c1ccccc1Cl)N(Cc1cccnc1)C(=O)CCC(=O)Nc1cc(C)on1 (stereo not given)	-13.0%
CCC1=NN(C(=O)C(=O)Nc2ccc(OC)cc2)C(O)(C(F)(F)F)C1 (stereo not given)	-9.2%
CCCOc1ccc(-c2nonc2NC(=O)c2oc3ccc(C)cc3c2C)cc1OCCC	0.8%
CC(OC(=O)CC1CC2CCC1C2)C(=O)Nc1ccc(N2CCOCC2)cc1 (stereo not given)	10.3%
Cc1cc(C(=O)NNC(=O)CN2C(=O)NC3(CCCCC3)C2=O)c(C)o1	4.6%
Cc1cc(N2CCN(C)CC2)nc2ccc(NC(=S)NCc3cccs3)cc12	-7.0%
CC(C)(C)c1cc(/C=N/NC(=O)Cc2nc3ccccc3[nH]2)cc(C(C)(C)C)c1O	-10.3%
CCN(C(=O)CSc1n[nH]c(N)n1)C1CCCCC1	10.8%
CC(C)(C)C(=O)CSc1ncccn1	?
COC(=O)C(CC(C)C)Oc1ccc2c(C)cc(=O)oc2c1 (stereo not given)	-0.6%
COc1ccc(S(=O)(=O)N(Cc2nc(-c3ccc(Cl)cc3)no2)C2CCCCC2)cc1	9.4%
COc1ccccc1NC1=NC(c2ccc(Cl)cc2)N=C(N)N1 (stereo not given)	-18.8%
Cc1ccc(NC(=O)c2ccc(NS(=O)(=O)c3ccc4[nH]c(=O)[nH]c4c3)cc2)nc1	-9.7%
COc1cc(C(C)=O)ccc1OCC(=O)Nc1ccc2nc(C)sc2c1	-13.6%
